# Screens: PubChem, National Center for Advancing Translational Sciences (NCATS)
# VDR inhibitor: inhibitors of human vitamin D receptor | VDR-SRC2-3 peptide fluorescence polarization, 2 h | P11473 | Potency, µM, without a hit: max response, negative = inhibition, usual class: inhibitors | actives 0.93% (n = 400,000) | AID 504847; active means well fitted inhibition curve with a large enough effect; inconclusive means small, poorly fitted or top-dose-only effect, or another doubt; inactive means no such curve, though single readings can be large or run the other way; further: series mostly up to about 120 µM
# Target sequence (P11473 whole entry, looked up): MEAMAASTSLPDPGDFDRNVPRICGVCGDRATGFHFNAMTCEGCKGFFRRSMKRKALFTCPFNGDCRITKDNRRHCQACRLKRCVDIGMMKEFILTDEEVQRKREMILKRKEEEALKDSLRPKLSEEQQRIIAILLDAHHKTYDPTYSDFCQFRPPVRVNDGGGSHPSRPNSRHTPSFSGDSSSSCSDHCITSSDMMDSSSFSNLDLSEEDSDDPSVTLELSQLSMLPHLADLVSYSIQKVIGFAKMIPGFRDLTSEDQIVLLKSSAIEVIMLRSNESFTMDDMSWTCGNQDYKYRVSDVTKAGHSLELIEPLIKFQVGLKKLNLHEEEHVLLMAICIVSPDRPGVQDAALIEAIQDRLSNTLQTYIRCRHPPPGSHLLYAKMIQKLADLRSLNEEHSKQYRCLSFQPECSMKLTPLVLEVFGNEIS
#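 After 23 nl compound addition and a short centrifugation, plates sat for 2 hours at ambient temperature; polarization of fluorescence then indicated loss of VDR binding to peptide SRC2-3.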
# * marks the source's active call; other numbers are inactive results; ? = inconclusive; & = joins results of further samples; [ ] = another dose, or the depositor's remark. On the % scale 0 is the no-effect control and ±100 the full control effect; potency means the concentration at half of the fitted maximal effect. Not all compounds are listed; rates above refer to the full screens.
# Start of the data: the first seven records as a preview:
VDR inhibitor | Molecule
3.1% | C#Cc1ccc([C@H]2C=C(C(=O)N3CCOCC3)O[C@@H](OCc3ccc(CO)cc3)C2)cc1
11.7% | CCCCN(C)C(=O)c1ccc2c(c1)N(CC)C(=O)c1ccccc1S2(=O)=O
-19.2% | COc1cccc(-c2nn(C)c3sc(C(=O)NCc4ccc(OC)cc4OC)cc23)c1
0.8% | CCOc1ccc(/C=N/NC(=O)c2nnn(-c3nonc3N)c2-c2ccc(OCC)cc2)cc1
5.9% | Cc1ccc(S(=O)(=O)N2CCN(C(=O)c3ccccn3)CC2)cc1
5.6% | CCN(CC)S(=O)(=O)c1ccc(C(=O)NCCSc2c(-c3ccc(OC)cc3)[nH]c3ccccc23)cc1
0.4% | O=C1CCC(=O)N1OCCCOc1ccc2c(c1)CCC2

# The list itself, from the first entry:
VDR inhibitor | Molecule
3.1% | C#Cc1ccc([C@H]2C=C(C(=O)N3CCOCC3)O[C@@H](OCc3ccc(CO)cc3)C2)cc1
11.7% | CCCCN(C)C(=O)c1ccc2c(c1)N(CC)C(=O)c1ccccc1S2(=O)=O
-19.2% | COc1cccc(-c2nn(C)c3sc(C(=O)NCc4ccc(OC)cc4OC)cc23)c1
0.8% | CCOc1ccc(/C=N/NC(=O)c2nnn(-c3nonc3N)c2-c2ccc(OCC)cc2)cc1
5.9% | Cc1ccc(S(=O)(=O)N2CCN(C(=O)c3ccccn3)CC2)cc1
5.6% | CCN(CC)S(=O)(=O)c1ccc(C(=O)NCCSc2c(-c3ccc(OC)cc3)[nH]c3ccccc23)cc1
0.4% | O=C1CCC(=O)N1OCCCOc1ccc2c(c1)CCC2
0.1% | CCN1CCN(S(=O)(=O)c2ccc(C(C)(C)C)cc2)CC1
-5.8% | COc1cccc(C(=O)OCC(=O)N2CCC(Cc3ccccc3)CC2)c1OC
-9.2% | O=C(Nc1nc2ccccc2[nH]1)c1ccc(F)c(S(=O)(=O)N2CCOCC2)c1
-3.1% | CCOC(=O)C1CCN(C(=O)C2CCC(=O)N(Cc3cccc(C(F)(F)F)c3)C2)CC1 (stereo unspecified)
-5.6% | CNC(=O)C1CC(=O)N(c2ccc(OCC(=O)Nc3ccc(F)cc3)cc2)C1 (stereo unspecified)
36.5%[activator] | COc1ccc2c(c1)C(c1ccc(C)o1)=NNC(c1ccccc1)=N2
-17.3% | CCOc1ccc(NC(=O)N(O)C2(C#N)CCCCC2)cc1
-6.4% | CC(C)[C@H](NC(=O)OCc1ccccc1)C(=O)NCc1ccccc1
12.0% | CC(C)(C)NNC(=S)Nc1cccc(F)c1
-2.8% | COC(=O)c1cc(NC(=O)c2cc3sccc3n2Cc2ccc(Cl)cc2)cc(C(=O)OC)c1
15.4% | CCOc1ccccc1NS(=O)(=O)c1c(-c2ccc(C)cc2)csc1C(=O)OC
13.7% | COc1ccccc1CNc1nc2ccccc2c2nc(-c3cccc(C)c3)nn12
-16.5% | CCCCc1ccc(NC(=O)CSc2nc(=O)n(CCCN3CCOCC3)c3c2CCC3)cc1
0.5% | N/C(=N/OC(=O)c1cccc([N+](=O)[O-])c1)c1cccc([N+](=O)[O-])c1
-4.4% | C=C[C@@H]1c2ccccc2N(S(=O)(=O)c2ccc(C)cc2)[C@H](c2ccc(C(F)(F)F)cc2)C1(C#N)C#N
-26.2% | CCCCOc1ccc(-c2[nH]ncc2C=O)cc1
-17.5% | O=S(=O)(NC1CCSc2ccccc21)c1ccccc1 (stereo unspecified)
-9.2% | CC(C)Cc1ccc(S(=O)(=O)N2CCN(c3ccccn3)CC2)cc1
-8.3% | COc1ccccc1Cn1c(SCC(N)=O)nc2c(oc3ccccc32)c1=O
-14.7% | COC(=O)c1ccc(NC(=S)NC2CC3CCC2C3)cc1 (stereo unspecified)
-29.6% | C1=C(c2ccccc2)CCN(c2nc3ccccc3n3cnnc23)C1
4.2% | CCCCC[C@H](O)/C=C/C=C\C/C=C\C=C\[C@@H](O)CCCC(=O)O
12.4% | Cc1cc(C)c(NC(=O)C2CC(=O)N(C3CCCC3)C2)c(C)c1 (stereo unspecified)
-1.1% | Cc1ccc(NC(=S)NCc2cccs2)c(C)c1
-1.8% | COc1ccc(S(=O)(=O)Nc2cccc(-c3ccc(N4CCOCC4)nn3)c2)cc1F
-1.8% | CC(CNCC1CCCO1)COc1ccccc1 (stereo unspecified)
-21.7% | CC1CC(=S)Nc2ccccc2N1Cc1ccccc1 (stereo unspecified)
-10.5% | C/C(CC(=O)NCc1ccccc1)=N\NC(N)=S
8.8% | COc1ccc(/C=N/NC(=O)Cn2cnc3c2c(=O)n(C)c(=O)n3C)cc1
-8.2% | COc1c(C)cc(C(=O)C2CCCN(S(=O)(=O)N(C)C)C2)cc1C (stereo unspecified)
0.8% | COc1ccc(CC(=O)NCc2n[nH]c(=S)n2-c2ccc(Br)cc2)cc1
2.0% | COc1cccc(NC(=O)CN(C)C(=O)CNC(=O)c2ccccc2F)c1
0.2% | CC1CN(C2=N/C(=C/c3ccc4c(c3)OCO4)C(=O)N2)CC(C)O1 (stereo unspecified)
-23.5% | O=C(N/C(=C\c1cccc(Br)c1)C(=O)N1CCOCC1)c1ccco1
-17.8% | CCOc1ccc(NC(=O)c2oc3ccccc3c2NC(=O)Cc2cccs2)cc1
-5.7% | CC(C)(C)Cc1nnc(NC(=O)CCc2ccccc2)s1
7.3% | CC(C)(C)c1ccc(C(=O)c2c[nH]c(C(=O)NCc3ccco3)c2)cc1
-8.8% | O=C(O)CCSc1nc2ccccc2n1-c1ccccc1
-8.8% | Cc1nc2nc(SCC(=O)NCc3ccccc3)nn2c(C)c1Cc1ccccc1Cl
-7.2% | COc1ccc(C(=O)C2CCCN(Cc3cnc(N4CCOCC4)s3)C2)c(OC)c1 (stereo unspecified)
-20.5% | O=C(Nc1ccc(N2CCOCC2)c(Cl)c1)c1ccc(F)cc1
-5.4% | O=C1CN(C(=O)COC(=O)CCC(=O)c2ccc3c(c2)OCCO3)c2ccccc2N1
-11.5% | C/C(=N\NC(=O)Cn1cc([N+](=O)[O-])cn1)c1ccco1

# Next section:
VDR inhibitor | Molecule
-0.5% | O=C(O)C1C2C=CC(C2)C1C(=O)NCc1ccc(Cl)c(Cl)c1 (stereo unspecified)
11.9% | Cc1cc(CN(C)Cc2ccc(OCC(O)CN(C)Cc3ccccc3)cc2)on1 (stereo unspecified)
-21.6% | CCN1C(=O)[C@H]2[C@@H](c3ccc(-c4ccc(C(C)=O)cc4)cc3)N3CCCC[C@@]3(C(=O)OC)[C@H]2C1=O
-29.3% | O=C(NCC(=O)N(c1ccccc1)C(C(=O)NC1CCCCC1)c1cccnc1)c1ccco1 (stereo unspecified)
-4.8% | O=C(NCCc1ccccc1)c1ccc(CSc2nc3cccnc3n2Cc2ccccc2)cc1
20.9% | CCOc1ccc2nc(N3CCCC(C(=O)Nc4ccccc4CC)C3)sc2c1 (stereo unspecified)
-12.1% | CCC1CCCCN1C(=O)c1ccc2c(c1)C(=O)N(c1ccc(C)cc1)C2=O (stereo unspecified)
10.4% | CCc1ccc(NC(=O)C2CCC(CNC(=O)[C@@H]3Cc4ccccc4CN3)CC2)cc1 (stereo partly specified)
-3.5% | Cc1ccccc1Cn1cc(S(=O)(=O)CC(=O)Nc2nccs2)c2ccccc21
-9.9% | CCCN(C(=O)Cc1coc2cc(C)c(C)cc12)c1c(N)n(Cc2ccccc2)c(=O)[nH]c1=O
19.8% | CC(C(=O)NCc1ccc(F)cc1)n1ccc2cc(S(=O)(=O)N3CCCC3)ccc21 (stereo unspecified)
? | CC1CCc2sc(-c3n[nH]c(=S)o3)cc2C1 (stereo unspecified)
4.4% | Cc1nn(-c2cccc(C(F)(F)F)c2)c(Cl)c1/C=N/n1cnnc1
1.9% | CCN(CC)C(=O)[C@H]1C[C@H](CC(=O)NCCCOC)C(=O)N2CCc3c([nH]c4cc(-c5ccco5)ccc34)[C@]12C
0.6% | O=C(Nc1ccccc1Cl)C1CC(=O)N(c2ccccc2)C1 (stereo unspecified)
10.8% | Cc1ccc(NC(=O)Cn2nc(C)c3nn(-c4ccc(Cl)cc4)c(C)c3c2=O)cc1C
1.3% | CC1CCN(CC(=O)Nc2ccc(S(=O)(=O)N3CCCC(C)C3)cc2)CC1 (stereo unspecified)
-10.7% | CC(C)Oc1ccc(C(=O)NCCNC(=O)c2ccco2)cc1
17.3% | O=C(NCc1ccc2c(c1)OCO2)c1cc(-c2ccccc2)c(N2CCOCC2)s1
-9.4% | CCc1ccc(-n2c(SCC(=O)c3ccc4c(c3)NC(=O)CO4)nc3ccccc3c2=O)cc1
-6.0% | CCOC(=O)c1[nH]c2ccccc2c1NC(=O)C1CCCC1
-0.2% | O=C(NC1CCCC1)C(c1ccco1)N(C(=O)c1ccco1)c1ccc(F)cc1 (stereo unspecified)
-5.1% | COc1ccccc1N1CCN(C(=O)N2CCOCC2)CC1
0.5% | COc1ccc(N=c2oc3c(OC)cccc3cc2C(=O)NCc2ccco2)c(OC)c1
3.9% | COC(=O)N1CCC2(CCCN(Cc3ccccc3OC)C2)CC1
-6.8% | CCCCc1ccc(NC(=O)c2ccc(=O)n(Cc3cccc(C)c3)c2)cc1
? | CCOc1ccccc1/C=c1\sc2ncnn2c1=O
-24.6%&5.9% | CN(C)CCN(Cc1ccccc1)S(=O)(=O)c1csc(C(N)=O)c1
13.1% | CC(=O)Nc1ccc(S(=O)(=O)N2CCN(C(C)CCc3ccccc3)CC2)cc1 (stereo unspecified)
9.7% | CN(Cc1ccccc1)C(=O)c1[nH]cnc1C(=O)NC1CCN(C(=O)OC(C)(C)C)CC1
5.1% | COc1cc(C(=O)O)nc2ccc([N+](=O)[O-])cc12
1.6% | COc1ccc(CC(=O)NNC(=O)c2ccc(Br)s2)cc1OC
-8.7% | Cc1cc(C(F)F)n2nc(C(=O)Nc3ccccc3Br)nc2n1
3.6% | Nc1c(O)cccc1C(=O)C[C@@H](N)C(=O)O
-17.4% | O=C(C1CCC1)N1CCc2cc(S(=O)(=O)NCCN3CCN(c4ccccc4F)CC3)ccc21
-5.9% | CCOC(=O)c1csc(NC(=O)c2cc(=O)c3ccccc3o2)n1
9.2% | Cc1cccc(Nc2ncc3c(n2)CC(C)CC3=O)c1 (stereo unspecified)
5.7%&-12.5% | Cc1ccc(NC(=O)CSc2nc(-c3ccco3)cc(C(F)(F)F)n2)cc1C
-4.0% | COc1cc(-c2cc(C(=O)OCC(=O)NC3CC3)c3ccccc3n2)cc(OC)c1OC
-8.3% | CC(CNC(=O)C1CCCCC1C(=O)O)c1ccccc1 (stereo unspecified)
6.2% | O=C(CSc1nnc(NC2CCCCC2)s1)Nc1ccc(N2CCOCC2)cc1
4.6% | CC(C)Cn1c(=O)c2sccc2n2c(CCCC(=O)NC3CCCCC3)nnc12
-5.3% | COc1ccc(OC)c(/C=N/N2CCN(c3ccc(Cl)cc3)CC2)c1
8.0% | CC1CCCN(Cc2cccc(Oc3ccccc3)c2)C1 (stereo unspecified)
8.9% | O=C(NCc1cccs1)c1nn(-c2ccccc2Cl)nc1CO
-5.6% | COc1cc(CC(NC(C)=O)C(=O)NC2CCN(C(=O)c3cc(OC)c(OC)c(OC)c3)CC2)cc(OC)c1 (stereo unspecified)
4.1% | COc1cc(/C=C(/C#N)C(=O)NCCCc2ccccc2)ccc1OCC(=O)O
-5.0% | Cc1ccc(S(=O)(=O)N(C)CC(O)Cn2c3ccccc3c3ccccc32)cc1 (stereo unspecified)
0.0% | CCS(=O)(=O)c1ccc2oc(Nc3cc(C)cc(C)c3)nc2c1
-6.9% | COc1cccc(Cn2c(=O)c(-c3ccc(Cl)cc3)nc3cnc(N4CCN(C)CC4)nc32)c1

# Some values from the list.
# Result for O=C(NCc1cccs1)c1nn(-c2ccccc2Cl)nc1CO under VDR inhibitor: 8.9%
# Result for Cc1ccc(NC(=O)CSc2nc(-c3ccco3)cc(C(F)(F)F)n2)cc1C under VDR inhibitor: 5.7%&-12.5%

# Four entries picked at random from the list so far, as already listed:
VDR inhibitor | Molecule
-5.9% | CCOC(=O)c1csc(NC(=O)c2cc(=O)c3ccccc3o2)n1
-5.6% | COc1cc(CC(NC(C)=O)C(=O)NC2CCN(C(=O)c3cc(OC)c(OC)c(OC)c3)CC2)cc(OC)c1 (stereo unspecified)
8.0% | CC1CCCN(Cc2cccc(Oc3ccccc3)c2)C1 (stereo unspecified)
13.1% | CC(=O)Nc1ccc(S(=O)(=O)N2CCN(C(C)CCc3ccccc3)CC2)cc1 (stereo unspecified)

# The list continues.
VDR inhibitor | Molecule
-3.1% | CCC1=C(c2ccc(C)cc2)S(=O)(=O)N=C1N1CCC(C(=O)Nc2ccccc2C(=O)OC)CC1
-7.0% | CCn1cc(CNC(=O)c2cc(-c3ccccc3OC)nc3ccccc23)c(C)n1
-4.3% | O=C(COC(=O)CCSc1ccc(Cl)cc1)NCCc1ccccc1
0.5% | Cc1ccccc1C(=O)Nc1cccc(NC(=S)NC(=O)c2cccs2)c1
13.9% | COC(=O)c1ccccc1NC(=O)C1CCCN(S(=O)(=O)c2ccccc2)C1 (stereo unspecified)
7.0% | COc1ccc(CNC(=O)c2ccc3c(Cl)c4c(nc3c2)CCCC4)c(OC)c1
3.1% | Oc1ccccc1N=N/C(=N/Nc1ccccc1O)c1ccccc1
-9.8% | CCOc1ccc(OCCC(=O)OCC(=O)Nc2cc(S(=O)(=O)N3CCOCC3)ccc2C)cc1
-5.2% | COc1ccc(-n2nc(C(=O)NCC(=O)N3CCCC3)c3ccccc3c2=O)c(OC)c1
-7.0% | CN1CCN(C(=O)c2cc(=O)c3cc(Cl)ccc3o2)CC1
-6.9% | Oc1c(Br)cc(C2N=C(c3ccccc3)NO2)cc1Br (stereo unspecified)
-58.3% | Cc1ccc2c(c1)-c1c(ssc1=S)C(C)(C)N2C(=O)c1ccco1
2.0% | CCCN(CCC)CCCNC(=O)C1CCN(S(=O)(=O)CC)CC1
-6.5% | CCC(Sc1nc2ccsc2c(=O)n1Cc1ccc(C(=O)O)cc1)C(=O)Nc1ccc(C)c(Cl)c1 (stereo unspecified)
-1.1% | COc1ccc(S(=O)(=O)N2CC(C)OC(C)C2)cc1C(=O)N1CCCCC1 (stereo unspecified)
